HPGD block: blocks human HPGD enzyme activity; purified HPGD, NADH fluorescence kinetic, PGE2 substrate; Potency, µM, for inactives: at the highest dose activity change, negative = inhibition, hits mostly inhibitors; P15428; 4.3% of 150,000 active; active = well fitted inhibition curve with a large enough effect (not every such curve was filed as active); inconclusive = small, poorly fitted or top-dose-only effect, or another doubt; inactive = no such curve, though single readings can be large or run the other way;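 note: top concentration of the series not given in the record; plate controls included wells without enzyme; inactives centre near -10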
Target sequence (P15428 whole entry, looked up): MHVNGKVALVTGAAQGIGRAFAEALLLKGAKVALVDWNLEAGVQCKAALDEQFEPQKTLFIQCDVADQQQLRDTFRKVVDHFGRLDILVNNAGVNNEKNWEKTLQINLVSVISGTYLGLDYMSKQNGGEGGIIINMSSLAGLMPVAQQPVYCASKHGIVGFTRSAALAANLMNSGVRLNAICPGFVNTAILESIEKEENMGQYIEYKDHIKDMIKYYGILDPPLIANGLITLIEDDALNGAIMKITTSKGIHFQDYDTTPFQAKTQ
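20 nM HPGD preincubated 15 min at room temperature with compound in 50 mM Tris-HCl pH 8, 0.01% Tween 20. Started with 1 mM NAD+ and 30 uM prostaglandin E2; NADH fluorescence (360/450 nm) read 5 times over 30-s intervals, last minus first.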
* marks the source's active call; other numbers are inactive results; ? = inconclusive. % is set by controls: 0 for no effect and ±100 for the full control effect; potency is the fitted concentration of half-maximal effect. A portion of the library; the hit share may differ from the screen's.

SMILES	HPGD block
CCC(C)(C)NC(=O)C(c1cccn1C)N(C(=O)Cn1nnc2ccccc21)c1ccccc1OC (centres undefined)	-8%
Cc1ccc(OCC2Cn3c(nc4c3c(=O)[nH]c(=O)n4C)O2)cc1 (centres undefined)	-6%
COc1ccc(OC)c(/C=C/C(=O)N2C(=O)c3cccc(N)c3C2=O)c1	-18%
O=C(Nc1ccc(N2CCCCC2)cc1)c1cccnc1	-8%
CC(NC(=S)Nc1ccc(OC(F)F)cc1OC(F)F)C(C)(C)C (centres undefined)	-8%
CCNC(=O)NC(=O)C(C)On1nnc2ccc(S(=O)(=O)N(CC)CC)cc21 (centres undefined)	-11%
COc1cc2c(cc1OC)-c1cc3cc(OC)c(OC)cc3c(=O)n1CC2	?
COc1ccc(C(=O)NCCc2cn3ccc(C)cc3n2)cc1	-12%
O=C(c1cccn2c(=O)c3ccccc3nc12)N1CCN(Cc2ccc3c(c2)OCO3)CC1	?
O=C(O)CC/C(=N/NC(=O)c1cccs1)c1ccccc1	-9%
CCn1c(C)nc2cc(C(=O)N/N=C/c3ccc(OC)c(O)c3)ccc21	-25%
CC(=O)Nc1ccc(OCC(O)Cn2nc(C)nc2C)cc1 (centres undefined)	-8%
Cc1cn(S(=O)(=O)c2cc(Br)ccc2Br)cn1	-7%
O=C(Cc1ccccc1)Nc1ccc(NC(=O)c2cccc(Cl)c2)cc1	-13%
N#CCSc1nc2cc(C(=O)N3CCC(C(N)=O)CC3)ccc2c2nc3ccccc3n12	-14%
NC(=O)C(c1cccc(Cl)c1)c1ncc(C(F)(F)F)cc1Cl (centres undefined)	-12%
CCOc1ccccc1-n1c(SCC(=O)N2CCCC2)nnc1-c1ccc(O)cc1	-5%
COc1nc(-c2ccc(Cl)cc2)ccc1-c1noc(-c2ccco2)n1	-19%
Cc1ccc2[nH]c3c(c2c1)CN(C(=O)CN1CCN(Cc2ccc4c(c2)OCO4)CC1)CC3	-13%
C=C(C(=O)c1ccccc1)C(C)C(=C)C(=O)c1ccccc1	-4%
COc1ccc(S(=O)(=O)Nc2ccccc2C(=O)NC(C)(C)C)cc1OC	?
O=C(CSc1ncnc2ccccc12)Nc1cc(S(=O)(=O)N2CCCCC2)ccc1Cl	-14%
COc1cc(-c2nnc3n(CCc4ccccc4)c(=O)c4ccccc4n23)cc(OC)c1OC	-27%
CCN(CC(=O)Nc1ccc(NC(C)=O)cc1)C(=O)COc1ccc(C(=O)c2ccccc2)cc1	-8%
O=C(Nc1ccccc1)c1cnc2n(c1=O)CCS2	-20%
CNc1nc(SC)nc(N(C#N)CC(=O)OC)n1	-14%
O=C(NC1=NCCS1)c1ccc(Cl)s1	-14%
COc1ccc(-c2noc(CSc3nnc(-c4ccncc4)n3-c3ccc(F)cc3)n2)cc1OC	-10%
C=C(C)C1CC=C(CN2CC(C)OC(C)C2)CC1 (centres undefined)	-13%
Cc1cc(C)n(-c2cc(-c3ccccc3)nc(C)n2)n1	4%
O=C(c1cccc(F)c1)N1CCC2(CC1)CCN(c1ccccn1)CC2	?
CCn1cc(C(=O)OCC(=O)Nc2cc(S(=O)(=O)N(C)C)ccc2C)c(=O)c2ccc(C)nc21	-3%
COc1ccc(S(=O)(=O)Cc2ccc(C(=O)N3CCC(C(N)=O)CC3)o2)cc1	-8%
COC(=O)c1cc(OC)c(OC)cc1NC(=O)c1ccco1	-19%
CCOc1c(CNCCNC(=O)c2nonc2N)cccc1OC	-4%
Cc1ccc(S(=O)(=O)CCC(=O)c2ccc(O)cc2O)cc1	-22%
Cc1ccc(NC(=O)Cc2ccc(Cl)c(Cl)c2)cc1S(=O)(=O)N(C)C	-11%
C(=C\c1nc2ccccc2[nH]1)/c1ccccc1	?
CC1CCN(C(=O)CSc2nc3ccccc3c(=O)n2Cc2ccc3c(c2)OCO3)CC1	-20%
O=c1[nH]n(-c2ccc(Cl)cc2)c(=O)c(Cl)c1Cl	?
O=C(COc1ccc(Cl)cc1)NNC(=O)C(=O)N1CCCCC1	-8%
CC1CC(C)CN(C(=O)CSc2nc3ccsc3c(=O)n2Cc2ccccn2)C1 (centres undefined)	-7%
CC1(C)CCN(Cc2ccccc2)C1CC#N (centres undefined)	0%
COC(=O)c1[nH]c2ccc(F)cc2c1NC(=O)CCN1CCN(Cc2ccc3c(c2)OCO3)CC1	?
CCOc1ccc(CCNC(=O)C(C)n2nc(C)n3c(cc4occc43)c2=O)cc1OCC (centres undefined)	-3%
COC(=O)CNC(=O)CN1C(=O)N(c2ccccc2)C(N(O)C(=O)Nc2ccccc2)C1(C)C (centres undefined)	-3%
CCOC(=O)C1=C(c2ccccc2)N=c2s/c(=C\c3cc(OC)c(OC)c(OC)c3)c(=O)n2C1c1cccs1 (centres undefined)	-23%
CC(=O)OC1CCC2(C)C(=CC=C3C2CCC2(C)C3CCC2C(C)/C=C/C(C)C(C)C)C1(C)C (centres undefined)	-10%
COc1ccc(C(=O)N2CCC(=O)N(C(CO)Cc3ccccc3)CC2)cc1 (centres undefined)	-1%
NNC(=O)c1cccc(COc2ccc(Br)cc2)c1	-6%
More results
SMILES	HPGD block
O=C(C(Cc1ccccc1)n1cccc1)N1CCN(Cc2ccccc2)CC1 (centres undefined)	-1%
Cc1cc(C)cc(-c2nnc(SCC(=O)N3CCN(C(=O)c4ccco4)CC3)o2)c1	-6%
O=C1/C(=C/c2ccco2)Oc2c1ccc(O)c2CN1CCCCC1	?
Cc1cccc(C(=O)O)c1[N+](=O)[O-]	0%
Cn1cc(S(=O)(=O)CC(=O)N2CCCc3ccccc32)c2ccccc21	-7%
C=CCOc1ccc(C2NC(=O)NC(C)=C2C(=O)OC)cc1 (centres undefined)	-15%
Cc1cc(C)n(C2CCCCC2OC(=O)c2ccccc2)n1 (centres undefined)	-3%
CCCNC(=O)NCCc1c(C)[nH]c2ccccc12	-7%
COc1ccc(-c2nn(-c3ccccc3)cc2/C=N/NC(=O)c2ccc(Br)o2)cc1	?
O=C1c2ccccc2C(=O)N1CCCCSc1nc2ccccc2o1	25µM*

Ordered by number of heavy atoms (largest number first): some entries from above
SMILES	HPGD block
CCOc1ccc(CCNC(=O)C(C)n2nc(C)n3c(cc4occc43)c2=O)cc1OCC (centres undefined)	-3%
Cn1cc(S(=O)(=O)CC(=O)N2CCCc3ccccc32)c2ccccc21	-7%
O=C(Nc1ccc(N2CCCCC2)cc1)c1cccnc1	-8%

(listing goes on)
SMILES	HPGD block
COc1ccc([C@@H]2[C@@H](O)[C@H](O)[C@@H](C)N2C)cc1OC	-4%
CCOc1ccc(C2CC(c3ccccc3C)n3nc(N)nc3N2)cc1 (centres undefined)	-7%
COc1ccccc1N1CCN(C2=NS(=O)(=O)c3ccccc32)CC1	-8%
C/C(Cl)=C\Cn1c(Nc2cccc(C)c2)nc2c1c(=O)n(C)c(=O)n2C	-13%
CCC(C)NC(=O)c1ccccc1NC(=O)c1ccc(CSc2ccccc2)cc1 (centres undefined)	-6%
CC(C)C(c1nnnn1C(C)(C)C)N1CCN(c2cccc(Cl)c2)CC1 (centres undefined)	-11%
COc1cccc(NC2c3ccccc3C(=O)N2Cc2ccco2)c1 (centres undefined)	-3%
COC(=O)c1ccccc1NC(=O)C1CCCN(S(=O)(=O)c2ccc(F)cc2)C1 (centres undefined)	-20%
O=C1C(=C2SCCCS2)CC/C1=C\c1ccc(F)cc1	-7%
O=C(CSc1nnnn1-c1ccc2c(c1)OCCO2)Nc1nc2c(s1)CCCC2	-14%

Given field by field: entries from further up.
> COc1cc2c(cc1OC)-c1cc3cc(OC)c(OC)cc3c(=O)n1CC2
  HPGD block = ?

> COc1ccc(C(=O)NCCc2cn3ccc(C)cc3n2)cc1
  HPGD block = -12%

> O=C(c1cccn2c(=O)c3ccccc3nc12)N1CCN(Cc2ccc3c(c2)OCO3)CC1
  HPGD block = ?

> O=C(O)CC/C(=N/NC(=O)c1cccs1)c1ccccc1
  HPGD block = -9%

The results go on:
SMILES	HPGD block
CN1C(=O)C2(N=c3ccccc3=N2)c2ccccc21	-26%
CCOC(=O)c1[nH]c(C)c(/C(O)=C2\C(=O)C(=O)N(CCCN3CCOCC3)C2c2cccnc2)c1C (centres undefined)	-7%
O=C(NCCSCc1ccco1)Nc1ccc(Cl)cc1	-12%
Cc1cc(C(=O)CN2C(=O)NC3(CCCc4ccccc43)C2=O)c(C)n1Cc1ccccc1 (centres undefined)	-24%
CCC(C)n1[nH]c(=O)c2c(C)cc(C)nc21 (centres undefined)	-21%
Cc1c(-n2cc(C(=O)c3cc(Br)ccc3O)cc(C#N)c2=O)c(=O)n(-c2ccccc2)n1C	-8%
Nc1nc(-c2ccco2)nn1C(=O)CCc1ccccc1	-2%
O=C1C(Cl)=C(N2CCOCC2)C(=O)N1c1cccc(Cl)c1	-10%
Cc1cc(CN2CCCCC2)c(O)c(CN2CCCCC2)c1	-10%
CCOC(=O)C(/C=C(\C#N)C(=O)OCC)=C(/N)N1CCN(c2ccc(OC)cc2)CC1	-9%
CN(C)S(=O)(=O)c1ccc(C(=O)Nc2ccc(CN3CCCC3)cc2)cc1	-24%
COc1ccc(-c2nc(-c3cccc([N+](=O)[O-])c3O)cc(=O)o2)cc1OC	-5%
C=CCn1c(SCC(=O)Nc2ccccc2C)nc2sc(C)c(C)c2c1=O	-19%
O=C(COC(=O)CCCN1C(=O)c2cccc3cccc(c23)C1=O)Nc1cccc(C(F)(F)F)c1	?
COC(=O)c1sc(NC(=O)c2ccc(Cn3cc(Cl)cn3)o2)c(C#N)c1C	16µM*
CC(C)Nc1ccccc1	-6%
CCc1cccc2c(C(=O)CSc3nnc(-c4ccncc4)n3C)c[nH]c12	-13%
COc1ccc2c(c1)CCc1c(C(=O)NCc3ccc(Cl)cc3)noc1-2	-2%
O=C1CC2(CCCCC2)Oc2ccc(OCC(=O)N3CCOCC3)cc21	?
CCCSc1nc(C)c2cc(C)cc(C)c2n1	?
CCC(=O)Nc1nnc(-c2ccco2)o1	-9%
CC1CN(S(=O)(=O)c2ccc(NC(=O)CCN3C(=O)c4ccccc4C3=O)cc2)CC(C)O1 (centres undefined)	-16%
CC(=O)Nc1cc(C(=O)O)ccc1S(=O)(=O)c1ccc(C)cc1	-6%
CC(C)NC(=O)CC(=O)N/N=C/c1ccc(Br)cc1	-11%
CC(=C1C(=O)c2ccccc2C1=O)N1CCC(C(N)=O)(N2CCCCC2)CC1	-4%
Cc1c2c(nc3c(C(=O)NC4CCCC4)cnn13)CCCC2	?
CN1CCC(N(C)CC(=O)Nc2ccccc2N2CCOCC2)CC1	0%
C#CCOC(=O)c1ccccc1C(=O)O	0%
Cc1cc2ccccc2c[n+]1CC(O)C[n+]1cc2ccccc2cc1C	-13%
Cc1ccc2cc(CCNC(=O)c3cccc([N+](=O)[O-])c3)c(=O)[nH]c2c1C	-13%
CC(C)OC(=O)C1C2C=CC3(CN(Cc4cccs4)C(=O)C13)O2 (centres undefined)	-12%
CCc1cc(C=C(Cl)Cl)oc(=O)c1C	-14%
Cc1nn(-c2ccccc2)c(Cl)c1C(=O)Nc1c(C)n(C)n(-c2ccccc2)c1=O	-23%
N=C(N)c1ccccc1	-13%
COc1ccc(NC(=O)CC(C)C)c([N+](=O)[O-])c1	-12%
Cc1ccc(N2C(=O)c3sc4nnc(C)c(=O)n4c3C2=O)cc1	-18%
O=C(Nc1ccc(Cl)cc1)c1cccnc1N1CCCCC1	4%
COC(=O)C1=C(C)N(c2ccc(OC)cc2)C(=O)/C1=C\c1cccs1	-4%
Cc1ccc(S(=O)(=O)N(C)C)cc1NC(=O)CSc1ncc(C(F)(F)F)cc1Cl	-9%
O=C(CN1CCN(S(=O)(=O)c2ccc(F)cc2)CC1)Nc1ccccc1F	-9%
O=C(NCC1CCC(C(=O)O)CC1)OCc1ccccc1 (centres undefined)	-15%
Cc1ccc(-n2c(=O)[nH]cc(C(=O)Nc3ccc4c(c3)OCCO4)c2=O)cc1	-26%
OCc1cn(-c2ccccc2)nc1-c1ccco1	-11%
O=C(COC(=O)C1CC(=O)N(Cc2ccco2)C1)c1ccc(OC(=O)c2ccco2)cc1 (centres undefined)	18µM*
O=C(CCl)Nc1cccc(-c2cnc3ccccc3n2)c1	-15%
Cc1ccc(CNC(=O)/C(C#N)=C\c2ccc(N(C)C)cc2)cc1	-18%
Cc1ccc(-c2nc(NC(=O)CSc3ccc4ccccc4n3)ns2)cc1	-2%
CCCOc1ccc(/C=N/Nc2ccccc2[N+](=O)[O-])c(OCCC)c1	-12%
O=C(c1ccc2ccccc2c1)N1CCN(c2ccc([N+](=O)[O-])c(N3CCOCC3)c2)CC1	-17%
O=C(CN(Cc1ccco1)C(=O)CNS(=O)(=O)c1ccc(F)cc1)NCc1ccc(F)cc1	-6%
(continued)
SMILES	HPGD block
Cn1c(=O)oc2cc(S(=O)(=O)N3CCCC(C(=O)Nc4ccccn4)C3)ccc21 (centres undefined)	-5%
CCc1cccc(CC)c1N(COC)C(=O)Cn1ccccc1=N	?
Cc1nnc(N(C)C(=O)c2cccnc2)s1	0%
CCOc1ccc(/C=C\C(C)=N\O)cc1	1%
CCCCCC1=C(C(=O)OC)C(C(=O)OCC)N(S(=O)(=O)C(F)(F)F)c2ccccc21 (centres undefined)	-16%
Cc1cccc(C(=O)OCc2cnc(Cl)s2)c1	-12%
CCOC(=O)C1CCCN(c2nc3ccccc3nc2C(C#N)C(=O)OC(C)COC)C1 (centres undefined)	?
Cc1ccc(NC(=O)CN(C)C(=O)COc2cccc3cccnc23)cc1	-3%
Cc1cc(C)n2nc(C(=O)Nc3ccc4c(c3)OCO4)nc2n1	20µM*
Cc1ccc2occ(C(c3nnnn3C3CCCC3)N3CCN(C(=O)c4ccco4)CC3)c(=O)c2c1 (centres undefined)	-5%
